eIF4H FP inh = human eIF4H binding inhibitors, primary screen, translation initiation inhibitor project, biochemical, uHTS, fluorescence polarization; Eukaryotic translation initiation factor 4H (Homo sapiens), Q15056; eIF4H fluorescence polarization binding assay; inhibition, % at 35 µM; hit rate 0.94% among 290,000;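 active means 50% or more with normal probe brightness, or confirmed in later tests; about a fifth of its hits are not listed in these tables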;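 further: calls also rest on retests at 20 µM and on dose response follow-up; 0% = protein and probe with vehicle and 100% = probe without protein; strong numbers were not always called active; many hits fall short of the cut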
CSC inhib = cancer stem cell viability inhibitors, primary screen, luminescence; cancer stem cell-like cells viability; inhibition, % at 7.5 µM; hit rate 1.1% among 300,000; AID 2717, 2010;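 active means mean at 75% or more and at least half the replicates too; tested in HMLE shEcad cells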;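 further: 0% = median of negative and 100% = median of positive control wells; the first replicate is given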
Rce1 inhib = yeast Rce1p protease inhibitors, primary screen, biochemical, fluorescence, cell-free homogeneous; CAAX prenyl protease 2 (Saccharomyces cerevisiae (strain ATCC 204508 / S288c)), Q03530; yeast membranes, quenched prenylated peptide cleavage fluorescence; calls only; hit rate 0.27% among 290,000; AID 2563, 2010;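 active means fall in fluorescence gain of 50% or more versus controls, with final raw signal at or below 3038400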;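 further: plate controls were neutral control wells for no effect and wells lacking membranes for full effect; tested at 10 µM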
Target sequence (Q03530 whole entry, looked up): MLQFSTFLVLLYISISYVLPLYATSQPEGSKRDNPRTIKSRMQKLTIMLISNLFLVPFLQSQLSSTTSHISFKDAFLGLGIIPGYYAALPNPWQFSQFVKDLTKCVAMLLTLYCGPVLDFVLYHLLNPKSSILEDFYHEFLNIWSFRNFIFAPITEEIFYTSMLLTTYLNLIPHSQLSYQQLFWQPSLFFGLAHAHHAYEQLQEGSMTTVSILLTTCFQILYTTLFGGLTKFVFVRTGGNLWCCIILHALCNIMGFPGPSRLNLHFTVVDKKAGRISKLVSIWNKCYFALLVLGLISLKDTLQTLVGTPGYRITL
Env fusion inh = inhibitors of HIV-1 Env-driven cell-cell fusion, primary screen, HeLa-JRFL effector, CEM21 target cells, luciferase; inhibition, % at 12.3 µM; hit rate 1.1% among 360,000; AID 651610, 2012;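 active means mean replicate inhibition score of at least 50 and every replicate individually at or above 50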;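 further: 0% = plate neutral controls and 100% = maraviroc near 300 nM; one replicate is shown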
UUG fidelity = modulators of yeast start codon fidelity, primary screen, whole organism, S. cerevisiae, single point, plate reader; S. cerevisiae UUG-firefly luciferase reporter, luminescence/redox ratio; activity score, % at 18.7 µM; hit rate 0.13% among 350,000;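 active means replicate mean at a twofold rise or more, about +100% in these data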;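 further: firefly luciferase made from a UUG start codon reports start codon fidelity; reporter light over untreated wells divided by growth signal over untreated wells; some hits fall short of that in this replicate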
MT1-MMP act inh = blockers of MT1-MMP proenzyme processing, primary screen, HT1080 RFP-PRO-GFP cells, GFP/RFP fluorescence; Matrix metalloproteinase-14 (Homo sapiens), P50281; GFP/RFP ratio fluorescence, overnight; percent of plate control window, DMSO zero; GFP/RFP ratio change, % at 20 µM; hit rate 0.061% among 360,000;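 active means GFP/RFP ratio change of at least 30% with cell ATP level not reduced by more than half and red fluorescence within 50% of control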; further: strong numbers were not always called active
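Compound: 20 µM single dose, 1% DMSO / System: HT1080 RFP-PRO-GFP cells / Controls: DMSO and RFP-L50D-GFP cell wells / Read-out basis: GFP/RFP fluorescence ratio / Schedule: overnight compound exposure at 37 °C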
PABP polyA inh = PABP poly(A) RNA binding inhibitors, primary screen, biochemical, fluorescence polarization, uHTS; Polyadenylate-binding protein 1 (Homo sapiens), P11940; inhibition, % at 35 µM; hit rate 1% among 290,000; AID 2014, 2009;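 active means 50% or more with normal probe brightness, or confirmed in later tests; about a fifth of its hits are not listed in these tables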;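 further: calls also rest on retests at 20 µM and on dose response follow-up; controls were probe without protein and protein plus probe with vehicle; some compounds called inactive have numbers as strong as hits; many hits fall short of the cut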
Target sequence (P11940 whole entry, looked up): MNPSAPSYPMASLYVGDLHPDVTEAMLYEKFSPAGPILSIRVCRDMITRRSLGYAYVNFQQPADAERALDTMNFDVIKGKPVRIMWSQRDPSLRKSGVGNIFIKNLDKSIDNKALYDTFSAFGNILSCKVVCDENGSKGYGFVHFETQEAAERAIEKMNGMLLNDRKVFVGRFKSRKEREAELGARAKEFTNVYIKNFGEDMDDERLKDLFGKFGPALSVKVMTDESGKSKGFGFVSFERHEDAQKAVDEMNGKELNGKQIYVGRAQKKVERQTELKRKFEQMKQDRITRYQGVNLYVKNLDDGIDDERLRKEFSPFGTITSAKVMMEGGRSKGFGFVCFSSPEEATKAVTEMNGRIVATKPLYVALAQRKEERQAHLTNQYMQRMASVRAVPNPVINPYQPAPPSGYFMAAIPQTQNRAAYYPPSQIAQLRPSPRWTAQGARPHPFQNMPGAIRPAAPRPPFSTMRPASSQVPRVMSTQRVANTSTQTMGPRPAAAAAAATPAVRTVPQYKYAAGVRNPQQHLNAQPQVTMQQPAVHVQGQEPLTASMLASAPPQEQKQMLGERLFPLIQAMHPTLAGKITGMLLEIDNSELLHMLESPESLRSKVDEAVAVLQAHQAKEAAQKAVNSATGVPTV
MT1-MMP act inh RFP = recorded beside MT1-MMP act inh, whose call it bears; RFP signal change, %; measured here: RFP expression control read;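 0 = vehicle wells; hits needed this value within 50% of zero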
* marks the source's active call; other numbers are inactive results; i = inactive; . = not tested or not shown; + = active, no number.

SMILES | eIF4H FP inh | CSC inhib | Rce1 inhib | Env fusion inh | UUG fidelity | MT1-MMP act inh | MT1-MMP act inh RFP | PABP polyA inh
O=C(CCC(=O)Nc1ccccc1)NNC(=O)COc1ccccc1 | 5 | -12 | i | -2 | -17 | 7 | 8 | -6
Cn1c(=O)c2ncn(CC(=O)Nc3cc(C(F)(F)F)ccc3N3CCOCC3)c2n(C)c1=O | 2 | -9 | i | 4 | -9 | 1 | 4 | -10
CCOC(=O)CN1C(=O)C(C)(C)Oc2ccc(C(=O)Nc3ccccc3OC)cc21 | 4 | 2 | i | -40 | -5 | 2 | 0 | -7
CCC(=O)N1CCN(C(=O)c2ccccc2)CC1 | . | -8 | . | . | -9 | 0 | 2 | .
CCOC(=O)CC(NC(=O)c1cc2cc(Cl)cc(Cl)c2oc1=O)c1cccc([N+](=O)[O-])c1 (stereo unspecified) | -10 | 2 | i | -10 | . | 2 | -2 | 2
C=CCN=C1NN=C(c2cc(C)n(CC=C)c2C)CS1 | 32 | 18 | i | 46 | . | 3 | 4 | -4
CN(Cc1ccon1)C(=O)C1CCC(=O)N(CCc2ccc(Cl)cc2)C1 (stereo unspecified) | 2 | . | i | 9 | -8 | -1 | 1 | 7
CN(C)C(=O)COc1ccc2ccc(=O)oc2c1 | -12 | 7 | + | -63 | -17 | 2 | 4 | 3
Cc1ccc(S(=O)(=O)c2nc(S(=O)(=O)c3ccccc3)sc2N2CCN(C)CC2)cc1 | -10 | . | i | 16 | -1 | -3 | -4 | 3
CC(=O)Nc1ccccc1OCC(O)CS(=O)(=O)c1ccc(C(F)(F)F)cn1 (stereo unspecified) | -6 | . | i | -14 | -19 | 2 | -5 | -2
CC(C)(CNC(=O)C1CCCN1C(=O)c1cccs1)N1CCOCC1 (stereo unspecified) | 1 | . | i | -6 | . | -2 | 3 | 5
O=C(NCc1ccccc1)C1CCCN(C(=O)c2ccc(F)cc2)C1 (stereo unspecified) | . | . | . | 18 | -3 | 1 | -1 | .
O=C(OCC(=O)c1ccc(Br)s1)c1ccc(O)cc1 | . | -1 | . | . | -46 | 2 | 3 | .
CC(=O)c1cccc(NC(=O)Nc2ccc3c(c2)OCO3)c1 | 2 | 6 | i | -22 | -14 | -6 | -3 | 8
COc1ccc(N2CCN(C(c3cccs3)C(C)NC(=O)C(=O)N3CCCC3)CC2)cc1 (stereo unspecified) | 4 | -3 | i | 4 | 1 | -1 | -2 | 0
CCC(=O)Nc1ccc(C(=O)N/N=C/c2ccc([N+](=O)[O-])cc2)cc1 | -1 | 2 | i | 11 | -5 | 4 | 2 | -11
Cc1cccc(N2CCN(CCCNC(=O)C3CCCN(c4ncnc5c4nc4n5CCCCC4)C3)CC2C)c1 (stereo unspecified) | -3 | 5 | i | 18 | 11 | 4 | -13 | -5
CCc1cc(=O)oc2c3c(cc(OCC(=O)NCc4ccco4)c12)OC(C)(C)CC3 | -10 | -7 | i | . | -7 | 3 | -4 | -10
Cc1cc(Cl)c2oc(C(=O)NCCC3CCCCO3)c(C)c2c1 (stereo unspecified) | -15 | 11 | i | 0 | -6 | -1 | -1 | 0
CCCCN(c1ccccc1)S(=O)(=O)c1cccc(C(=O)O)c1 | -13 | 10 | i | -2 | -6 | -2 | 3 | 10
O=c1c2cc(NC(=S)NC3CCN(Cc4ccccc4)CC3)ccc2nc2n1CCCCC2 | -5 | 32 | i | 1 | . | 1 | 0 | 6
O=S(=O)(N1CCOCC1)n1cnc2ccccc21 | 6 | . | . | 4 | -4 | 2 | 6 | 26
O=C(NCCN1C(=O)S/C(=C\c2ccc(F)cc2)C1=O)C1CCN(S(=O)(=O)c2cccs2)CC1 | -4 | 8 | i | 9 | -7 | -2 | -1 | -2
Cn1c(C(=O)Nc2ccc3c(c2)OCO3)cc2sccc21 | 0 | 14 | i | -367 | -19 | 3 | 3 | 7
O=C(CN1C(=O)CCC1=O)NCC12CC3CC(CC(C3)C1)C2 | -2 | -14 | i | -96 | 6 | -2 | -5 | 2
S=C(NCCc1ccccn1)NC1CC2CCC1C2 (stereo unspecified) | -2 | 3 | i | 6 | . | 3 | 0 | 9
Nc1c(C(=O)Nc2ccc(F)cc2)nnn1-c1cccc(C(F)(F)F)c1 | 1 | 2 | i | -4 | -7 | 1 | -10 | 3
Cc1cc2oc(=O)cc(CN(C)Cc3ccccc3)c2cc1C | . | . | . | 5 | -8 | 0 | -2 | .
Cc1ccc(C)c(NCC(=O)NNC(=S)Nc2ccccc2)c1 | 9 | -15 | i | 9 | -28 | 3 | -1 | -7
CCCSc1ccc(-c2nn(-c3ccccc3)cc2/C=C(/C#N)C(=O)N2CCOCC2)cc1 | 1 | 12 | i | . | . | -13 | -12 | -2
CC(=O)Nc1ncc2c(n1)CC(c1ccco1)CC2=O (stereo unspecified) | 8 | -12 | i | -59 | -14 | 0 | 4 | 8
Fc1ccc2c(c1)C(c1ccncc1)=NNC(c1ccccc1)=N2 | 3 | -8 | i | 12 | . | 0 | 4 | 2
O=C(NNC(=O)c1ccc(NC(=O)C2CC2)cc1)c1ccc(F)cc1 | 1 | -1 | i | 2 | -16 | -1 | 5 | -2
Cc1ccc(C(=O)CSc2nnc3n2CCCCC3)s1 | . | -11 | . | . | -3 | -2 | 2 | .
Cc1ccccc1Nc1nc(N)nc(COC(=O)c2ccc3c(c2)OCCO3)n1 | . | . | . | 32 | -4 | 6 | 12 | .
Cc1ccc(NC(=O)C(C)Sc2nnc3n2CCCCC3)cc1S(=O)(=O)N1CCOCC1 (stereo unspecified) | . | . | . | 7 | -5 | -1 | 2 | .
CC1CCCN(S(=O)(=O)c2cccc3nonc23)C1 (stereo unspecified) | -11 | -16 | i | 20 | -17 | -1 | 3 | -8
NC(=O)C1CCN(c2nc(C3CC3)nc3c2nnn3Cc2ccccc2)CC1 | 6 | -18 | i | -28 | -14 | 0 | -7 | -1
CC(C)CN(C(=O)COC(=O)Cc1cccc2ccccc12)c1c(N)n(Cc2ccccc2)c(=O)[nH]c1=O | . | -8 | i | -10 | . | -7 | -6 | .
O=C(CC1N=C2c3ccccc3N=C(SCc3ccccc3Cl)N2C1=O)NCc1ccco1 (stereo unspecified) | 21 | 2 | i | -85 | -13 | -5 | -5 | -8

Rce1 inhib, hit marks shown above.
compound | Rce1 inhib | Env fusion inh | UUG fidelity | MT1-MMP act inh | MT1-MMP act inh RFP
CN(C)C(=O)COc1ccc2ccc(=O)oc2c1 | + | -63 | -17 | 2 | 4

Remaining list, next part:
SMILES | eIF4H FP inh | CSC inhib | Rce1 inhib | Env fusion inh | UUG fidelity | MT1-MMP act inh | MT1-MMP act inh RFP | PABP polyA inh
NC(=O)CCn1c(=O)oc2ccccc21 | 0 | -15 | i | -28 | -10 | 0 | -1 | 1
CCn1cnc2cc(NCc3ccncc3)ccc21 | 6 | -20 | i | -12 | -8 | 4 | 3 | -9
NC(=O)CSc1nnc(Cn2c(=O)sc3ccccc32)n1CCc1ccccc1 | -4 | -6 | i | -25 | -14 | -3 | -4 | 31
O=C(C(=O)c1ccc(O)cc1)c1ccccc1 | -4 | -4 | i | -3 | . | -1 | 4 | -12
Cc1nc2sc(C(c3ccccc3)N3CCC(O)CC3)c(O)n2n1 (stereo unspecified) | 1 | -17 | i | . | 3 | 4 | 6 | 0
COc1cccc(NC(=O)C2(C)CCN2Cc2ccccc2OC(F)F)c1 (stereo unspecified) | . | . | . | 11 | -2 | -6 | -9 | .
O=C(NC1CCCCC1)c1ccc(Cl)c(NC(=O)c2ccccc2F)c1 | -8 | 1 | i | . | . | . | . | -5
NC(=O)COc1ccccc1C1=NO[C@@](CC(=O)O)(C(=O)Nc2ccc3c(c2)OCCO3)C1 | 5 | . | i | -1 | -7 | 1 | 6 | 13
CCc1noc(C)c1C(=O)Nc1nc(-c2ccc(OC)cc2OC)cs1 | . | 7 | i | . | -10 | -7 | -15 | .
O=C(O)CCC(=O)OCC1CCCCC1 | -8 | -7 | i | -46 | -9 | -3 | 1 | 2
CC(=O)Nc1cccc(/C(C)=N/NC(=S)NC(C)C)c1 | -3 | -7 | i | 4 | . | 1 | -1 | -9
COc1ccc(C)cc1NC(=O)C1COc2ccccc2O1 (stereo unspecified) | -1 | -32 | i | 8 | 2 | 0 | 0 | 27
CCOc1ccc(NC(=O)c2ccccc2OCC(=O)c2ccc(C)cc2)cc1 | -7 | -1 | i | -28 | -7 | 6 | 4 | -12
CC1=C(C(=O)N2CCOCC2)CC(CC(=O)NC2CCCCC2)C(=O)N1Cc1ccccc1 (stereo unspecified) | . | . | . | 19 | -13 | 0 | 5 | .
Cc1ccc(S(=O)(=O)NCC(=O)N2CCN(c3ccc(F)cc3)CC2)cc1 | 7 | 1 | i | -26 | -10 | 0 | -2 | 9
CCCC(C(=O)N(C)CC(=O)Nc1ccc(N2CCOCC2)cc1)c1ccccc1 (stereo unspecified) | . | -17 | i | -36 | 7 | 1 | 4 | .
COc1ccc(OC)c(NC(=O)c2ccccc2N(C)S(=O)(=O)c2ccc(C)cc2)c1 | -3 | 2 | i | 12 | 5 | -2 | -7 | -18
O=c1cc(-c2ccc(Cl)cc2)[nH][nH]1 | -10 | -7 | i | -22 | -17 | 15 | 3 | -12
O=C(CN1C(=O)COc2ccc(Cl)cc21)NCC1CCCO1 (stereo unspecified) | -2 | -3 | i | 3 | 5 | -9 | 4 | -4
O=C(Nc1ncccn1)C12CC3CC(CC(C3)C1)C2 | 13 | . | i | 1 | 3 | -2 | 2 | 2

3 of these compounds, set out differently:
Order of results: eIF4H FP inh	CSC inhib	Rce1 inhib	Env fusion inh	UUG fidelity	MT1-MMP act inh	MT1-MMP act inh RFP	PABP polyA inh
- CC(=O)Nc1ccccc1OCC(O)CS(=O)(=O)c1ccc(C(F)(F)F)cn1 (stereo unspecified)
    -6	.	i	-14	-19	2	-5	-2
- CC(C)(CNC(=O)C1CCCN1C(=O)c1cccs1)N1CCOCC1 (stereo unspecified)
    1	.	i	-6	.	-2	3	5
- O=C(NCc1ccccc1)C1CCCN(C(=O)c2ccc(F)cc2)C1 (stereo unspecified)
    .	.	.	18	-3	1	-1	.

(list continues)
SMILES | eIF4H FP inh | CSC inhib | Rce1 inhib | Env fusion inh | UUG fidelity | MT1-MMP act inh | MT1-MMP act inh RFP | PABP polyA inh
COc1ccccc1-c1nc(SCC(=O)Nc2cc(C)on2)c2c(=O)n(C)c(=O)n(C)c2n1 | 16 | -1 | i | -5 | -14 | -4 | 2 | 5
O=C(NCc1cccs1)c1csc2ccccc12 | 7 | 3 | i | . | 1 | -2 | -1 | -11
COCCN(C(=O)CCC(=O)Nc1ccccn1)C(C(=O)NC(C)(C)C)c1ccc(OC)cc1 (stereo unspecified) | 6 | -1 | i | -4 | -20 | -2 | 3 | 9
CCNC(=O)c1cc2c(c(-c3cccc(-c4cccc(C(=O)N(C)C)c4)c3)n1)[C@@H](CCO)N(S(=O)C(C)(C)C)C2 (stereo partly specified) | . | . | . | 26 | 27 | 1 | 10 | .
CCOC(=O)c1ccccc1NC(=O)CSc1ncc(C(=O)OCC)c(N)n1 | -8 | -22 | i | 45 | -16 | 6 | -2 | -3
Cc1ccc([C@@H]2CC(=O)[C@@H]3CN(S(=O)(=O)c4ccc(C)cc4)[C@H](c4ccc(Cl)cc4)C[C@@H]3N2S(=O)(=O)c2ccc(C)cc2)cc1 | . | . | . | -17 | -17 | -2 | -3 | .
COCCn1nnnc1C(c1ccc(Cl)cc1)N1CCSCC1 (stereo unspecified) | -5 | -3 | i | . | -7 | 0 | -6 | -6
O=C(NC1CC1)c1ccc(-c2ccccc2)cc1 | 2 | 2 | i | -20 | . | -3 | 2 | -4
